Six1-Eya2 blk: Six1/Eya2 interaction inhibition. Q15475+O00167. AlphaScreen GST-Six1/His-Eya2 binding, biochemical; stronger effect = lower value; control for the full effect not named in the record. activity change, % (concentration not given with the values). 360,000 compounds, 0.56% hits. AID 651725; in the data active = activity change below about -65%; inconclusive = about -30% to -65%; inactive = above about -30%; also: % is scaled to controls: 0 for no effect and ±100 for the full control effect
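Compounds are tested against tagged Six1 and Eya2 proteins bridged by glutathione donor and nickel acceptor beads; after a one-hour incubation at 37 °C without light, AlphaScreen emission is recorded.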
TRPML1 inh: blocks the human TRPML1 channel; 390,000 compounds, 0.02% hits; TRPML1-inducible cells, Ca2+ dye fluorescence, FDSS; stronger effect = lower value; inhibition of EC80 agonist-evoked calcium signal; activity change, negative = inhibition, % (test concentration not listed); in the data active means activity change below about -50%; inconclusive means about -30% to -50%; inactive means above about -30%;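 also: stimulus is agonist 54-4 at its EC80 concentration; % is scaled to controls: 0 for no effect and ±100 for the full control effect; compound concentration not given in the record; the text of the record puts the active cut at -80%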
Target sequence (Q9GZU1 whole entry, looked up): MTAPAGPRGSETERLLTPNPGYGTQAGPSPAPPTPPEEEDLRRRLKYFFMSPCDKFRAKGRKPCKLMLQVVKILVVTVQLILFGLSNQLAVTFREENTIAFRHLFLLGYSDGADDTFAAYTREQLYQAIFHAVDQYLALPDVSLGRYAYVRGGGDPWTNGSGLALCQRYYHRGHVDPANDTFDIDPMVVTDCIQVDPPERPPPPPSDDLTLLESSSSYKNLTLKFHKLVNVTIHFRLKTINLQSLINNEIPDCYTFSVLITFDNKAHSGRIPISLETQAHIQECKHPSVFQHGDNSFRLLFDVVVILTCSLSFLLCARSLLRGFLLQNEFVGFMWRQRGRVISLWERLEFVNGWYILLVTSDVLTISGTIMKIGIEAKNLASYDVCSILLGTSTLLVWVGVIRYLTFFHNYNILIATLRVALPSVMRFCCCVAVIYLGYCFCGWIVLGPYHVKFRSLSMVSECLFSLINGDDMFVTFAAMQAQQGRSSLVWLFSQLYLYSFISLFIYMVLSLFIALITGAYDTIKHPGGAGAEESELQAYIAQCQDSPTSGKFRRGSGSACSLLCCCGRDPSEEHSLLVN
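TRPML1-DL cells, Tet-induced overnight (~16 h, 37 °C) at 1,500 cells/well, were loaded with Ca8 no-wash dye plus quencher for 45-90 min at room temperature. Compounds were pinned during FDSS kinetic reading; agonist 54-4 at EC80 (4 uM final) then added.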
D2 ag: activates the human D2 dopamine receptor; P14416; DiscoveRx PathHunter D2 beta-arrestin, luminescence, 90 min; 100% = 57 uM dopamine signal; activation, % (test concentration not listed); 360,000 compounds, 0.084% hits; AID 624465; in the data active = activation above about 40%; inconclusive = about 15% to 40%; inactive = below about 15%; also: compound concentration not given in the record; the text of the record calls up to 30% inactive
Target sequence (P14416 whole entry, looked up): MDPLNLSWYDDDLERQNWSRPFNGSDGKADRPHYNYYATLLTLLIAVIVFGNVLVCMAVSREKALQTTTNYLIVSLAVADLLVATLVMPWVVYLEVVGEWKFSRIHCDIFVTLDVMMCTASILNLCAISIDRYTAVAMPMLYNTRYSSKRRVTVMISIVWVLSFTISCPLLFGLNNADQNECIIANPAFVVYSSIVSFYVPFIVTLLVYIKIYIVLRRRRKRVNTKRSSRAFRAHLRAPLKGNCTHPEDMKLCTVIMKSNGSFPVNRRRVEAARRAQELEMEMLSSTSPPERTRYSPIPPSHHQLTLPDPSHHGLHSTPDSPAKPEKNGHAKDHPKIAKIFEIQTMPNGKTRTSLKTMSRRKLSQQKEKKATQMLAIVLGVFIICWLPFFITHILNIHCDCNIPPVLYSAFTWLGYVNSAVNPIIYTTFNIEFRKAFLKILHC
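Agonist mode: compounds alone added to overnight-plated D2 PathHunter cells for 90 min at 37 C, with 57 uM final dopamine (EC100) defining full response. Beta-arrestin recruitment detected by chemiluminescent reagent, read after 1 h at ambient temperature.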
TRPML1 ag: human mucolipin-1 channel agonism. TRPML1-expressing cells, Ca2+ dye fluorescence, FDSS; host cell line not named in the record; reference of the full effect not given here. activation, % (test concentration not listed). 410,000 compounds, 0.12% hits. AID 624414; in the data active = activation above about 50%; inconclusive = about 30% to 50%; inactive = below about 30%; also: 0% is about no effect; the text of the record puts the active cut at 80%
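Agonist activity was taken from a 110 s kinetic Ca2+ dye read on the FDSS after pinning compounds onto TRPML1-DL cells. The cells were seeded at 1,500/well with Tet inducer, incubated about 16 h, then dye-loaded at room temperature.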
PINK1 modulator: changes PINK1 expression; Potency, µM (top dose mostly 76.6 µM), without a hit: at the highest dose activation (PINK1 increase), hits mostly activators; 410,000 compounds, 0.2% hits; PINK1 immunofluorescence, high-content cytometry, 24 h; active = well fitted activation curve with a large enough effect; inconclusive = small, poorly fitted or top-dose-only effect; inactive = flat fitted curve, though single readings scatter; cell line not stated here;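 also: potency is read from the fitted curve at half-maximal effect; % of control where 0% means no effect; nearly all actives have a fitted effect of over 65% in size; a mitochondrial uncoupler was the plate control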
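Decision-based qHTS: stable cells, 24 h exposure to five compound concentrations, CCCP as control. Fixed cells stained for PINK1 plus nuclear, mitochondrial and cell markers, cytometer read.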
CtBP-E1A blk: CtBP/E1A binding inhibition | activity change, % (concentration not given with the values) | 340,000 compounds, 0.49% hits | AlphaScreen GST-E1A/His-CtBP binding, 1536-well; stronger effect = lower value; control for the full effect not named in the record; in the data active means activity change below about -65%; inconclusive means about -30% to -65%; inactive means above about -30%; also: % is scaled to controls: 0 for no effect and ±100 for the full control effect
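AlphaScreen with 125 nM GST-E1A and 125 nM His-CtBP (5X stocks) in Tris pH 8.0, 300 mM NaCl, BSA, Tween 20, TCEP. Compounds preincubated 2 h at 37 deg C, then glutathione donor/nickel acceptor beads added for 1 h at 37 deg C in dark.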
Starred values were filed as active, the others as inactive; ? = inconclusive; . = no result given; & = joins results of further samples; [ ] = another dose, or the depositor's remark.

SMILES	Six1-Eya2 blk	TRPML1 inh	D2 ag	TRPML1 ag	PINK1 modulator	CtBP-E1A blk
Cn1c(=O)c2c(nc(CN3CCN(C(=O)c4ccco4)CC3)n2Cc2ccc(F)cc2)n(C)c1=O	-10	-2	1.7	0.2	.	3
COCCNc1ncnc2c1ncn2[C@H]1CN(CCc2ccccc2)C[C@@H](CO)O1	3	.	-3.2	-0.4	1.4%	4
COc1ccc(CNc2nc3c(c(=O)n(Cc4ccc(F)cc4)c(=O)n3C)n2C)cc1	0	12	-0.5	2.2	-0.6%	-1
CCC1(CC)Cc2ccccc2C(=C(C#N)C#N)N1	-2	12	0.4	4.8	-3.1%	-1
COc1ccc(OC)c(NC(=O)Cn2cc(C#N)c3cc(Br)ccc32)c1	-1	8	-0.5	0.5	?	4
CC(/C=N\NC(=O)CN1CCN(S(=O)(=O)c2ccc(C)cc2)CC1)=C\c1ccccc1	-4	21	0.7	1.6	-2.1%	-14
COc1ccc2c(C)cc3nncn3c2c1	-11	-17	-1.4	-0.3	-0.2%	-3
CCCCN(C)c1c(C)nc2ccc(C(=O)NCc3ccc4c(c3)OCO4)cn12	-3	.	1.8	-0.9	0.8%	0
O=C(O)C1CCN(c2nc(-c3ccccc3)c3cc(Br)ccc3n2)CC1	6	2	-2.2	1.1	-1.8%	7
COc1ccc(NC(=O)CN2CCC(NC(=O)c3ccco3)CC2)c([N+](=O)[O-])c1	1	3	-0.6	1.0	0.3%	0
COc1ccc(N2CCN(C(=O)CN3C(=O)NC4(CCCc5ccccc54)C3=O)CC2)cc1 (configuration not stated)	-6	14	-3.7	0.6	-1.0%	-15
CCCNC(=O)CCC(=O)N1Cc2ccccc2Oc2ncccc21	.	-1	.	-0.3	-0.7%	.
COCCN(C(=O)COc1ccccc1)c1nnc(-c2cccnc2)s1	-9	37	0.7	0.5	-1.5%	-9
COc1ccc(CNc2ccc(S(=O)(=O)N3CCN(C)CC3)cn2)cc1OC	1	-8	-5.1	0.6	-0.1%	-2
CN(Cc1ccco1)C(=O)CSc1nn2c(=O)c(C(C)(C)C)nnc2s1	-9	26	1.7	2.2	0.7%	2
Cc1cccc2nc(CSc3ccc(Cl)cc3)cn12	1	-21	-2.4	2.2	4.7%	0
COc1ccc(CN(C)CCCn2ccc(N)nc2=O)cc1OC	2	4	-6.7	-0.4	0.1%	7
Cc1ccc(NC(=O)CSc2nnc(C)n3c2cc2sccc23)c(C)c1	.	0	.	-0.9	0.1%	.
CCc1ccccc1NC(=O)CSc1nnc(CC)c(CC)n1	.	-9	.	1.7	-1.3%	.
O=C(NNC(=O)c1ccccc1F)c1ccc(NS(=O)(=O)c2ccc(F)cc2)cc1	-5	-12	6.1	1.2	1.9%	5
CCN(C(=O)c1coc(=O)c2ccccc12)c1cc(OC)ccc1OC	1	-7	-3.4	-0.7	-0.4%	3
CN1CCNC(=O)C1CC(=O)NCC1(c2ccccc2)CCCCC1 (configuration not stated)	8	-10	3.0	0.1	0.8%	.
COc1ccc(C(=O)NCC(C)NC(=O)c2ccc(OC)c(Br)c2)cc1Br (configuration not stated)	16	-5	-2.2	0.7	9.7%	0
CCCN(C(=O)c1ccc(N(C)S(=O)(=O)c2ccc(C)cc2)cc1)C1CCS(=O)(=O)C1 (configuration not stated)	0	13	-1.9	-0.7	-0.1%	-16
Cc1ccc(Nc2n[nH]c(=S)s2)c(C)c1	-1	9	-3.5	-0.9	0.6%	-6
CCn1nnc2cc(C(=O)NCC(c3ccccc3OC)N(C)C)ccc21 (configuration not stated)	0	-8	-15	-1.1	-0.8%	10
CN(C(=O)c1cc(COc2ccc(F)c(F)c2)on1)C1CCOC1 (configuration not stated)	4	40	-0.1	0.4	-0.4%	-9
Cn1cc(-c2cc3n(n2)CCC(=O)N3CCCC(=O)Nc2ccc(Cl)cc2)c2ccccc21	.	49	.	1.1	0.9%	.
N#C/C(=C\c1ccc(-c2ccccc2C(=O)O)o1)c1nc2ccccc2[nH]1	?	-17&53	-8.9	5.7&6.2	1.8%&-2.0%	-22
CSCCC(NC(=O)C1CCCCC1)C(=O)Nc1ccc(F)c(Cl)c1 (configuration not stated)	.	2	.	1.4	0.0%	.
CC(C)(C)c1nnc(NC(=O)C2CCN(C(=O)c3ccco3)CC2)s1	-1	0	-2.3	0.0	2.0%	3
CCN=c1scc(C)n1/N=C/c1cc(Br)c(O)c(OC)c1	-6	5	-1.8	1.1	3.2%	-9
C/C(=N\NC(=O)CNc1cccc(C)c1)c1ccc(Br)s1	-15	40	-3.7	-0.3	14%	-8
O=C(CNC(=O)c1ccncc1)N/N=C/c1ccc(O)cc1O	-90*	2	-4.1	-0.9	-1.7%	.
CCN(CC)CC(O)Cn1c(-c2cccc(Cl)c2)nc2cc(C)c(C)cc21 (configuration not stated)	8	7	-0.8	0.7	3.0%	-16
O=[N+]([O-])c1cc(Br)ccc1NS(=O)(=O)c1ccccc1	0	4	-2.4	-0.3	6.6%	-3
COc1ccc(NC(=O)C2CCCN(c3c4c(nc5ncnn35)CCC4)C2)cc1OC (configuration not stated)	-7	-1	2.3	0.6	?	3
CCOC(=O)N1CCC(Nc2c(-c3ccccc3)c(=O)c2=O)CC1	-3	3	3.0	-1.0	-2.9%	0
CN(C)c1ccc(N=Nc2ccc(S(N)(=O)=O)cc2)cc1	-15	5	-4.0	-0.5	6.5%	-7
CCN(CC)c1ccc(NC(=O)COC(=O)C23CCC(=O)N2c2ccccc2S3)cc1 (configuration not stated)	-23	20	-1.9	-0.7	0.4%	-7
COc1ccc(-c2nc(C3CCCCC3)no2)cc1OC	9	3	1.5	-0.3	6.0%[38.3 µM]	27
CC(=O)N1C=CN(C(C)=O)C(c2cn(C)c3ccccc23)C1c1cn(C)c2ccccc12 (configuration not stated)	-11	-7	-6.5	1.3	6.7%	-4
COc1ccc(CCC(=O)OCC(=O)Nc2sccc2C#N)cc1	-15	-7	3.3	-1.1	-0.5%	-7
COc1cc(/C=C/c2nc3ccccc3c(=O)[nH]2)cc(OC)c1OC	2	37	-4.2	3.2	6.1%	2
Cc1onc(-c2ccccc2Cl)c1C(=O)OCC(=O)N1CCCCC1	-7	-8	4.9	0.5	2.2%	.
Cn1c(C(=O)N2CCCC(C(=O)O)C2)cc2sccc21 (configuration not stated)	-1	11	-2.3	-0.9	-1.2%	3
CCOc1ccc(/C=C/C(=O)c2ccc(-c3ccccc3)cc2)cc1	1	-1	-0.8	1.6	7.9%	5
COc1ccc(OC)c(-c2noc(CSc3nnc(-c4ccccc4)n3-c3ccccc3)n2)c1	.	-3	.	0.9	0.6%	.

Reprinted at random: two entries already listed, in no set order.
SMILES	Six1-Eya2 blk	TRPML1 inh	D2 ag	TRPML1 ag	PINK1 modulator	CtBP-E1A blk
COc1cc(/C=C/c2nc3ccccc3c(=O)[nH]2)cc(OC)c1OC	2	37	-4.2	3.2	6.1%	2
Cn1c(C(=O)N2CCCC(C(=O)O)C2)cc2sccc21 (configuration not stated)	-1	11	-2.3	-0.9	-1.2%	3

More compounds
SMILES	Six1-Eya2 blk	TRPML1 inh	D2 ag	TRPML1 ag	PINK1 modulator	CtBP-E1A blk
Cc1ccc(NC(=O)Nc2ccccc2CC[N+](=O)[O-])cc1	0	0	-3.9	0.4	0.9%	-1
CN(C)c1ccc(Nc2nc(-c3cccnc3)cs2)cc1	-10	-1	7.6	-0.4	-0.7%	-4
CCCCC(CC)C(=O)Nc1ncc([N+](=O)[O-])s1 (configuration not stated)	12	16	?	1.2	?	5
NC(=S)NN=C1Cc2cccc3cccc1c23	-9	6	-1.0	-0.6	0.4%	2
CCC(C)(C)NC(=O)C1CCCN(S(=O)(=O)c2ccc3c(c2)CC(C)N3C(=O)C2CC2)C1 (configuration not stated)	-9	29	-4.9	1.2	-0.1%	-5
O=C(NC1CC1)C1CCN(S(=O)(=O)c2ccc(Cl)c([N+](=O)[O-])c2)CC1	-6	-11	-1.6	0.0	-1.6%	.
CC(C)c1ccc(N(C(=O)c2ccco2)C(C(=O)NC2CCCC2)c2ccncc2)cc1 (configuration not stated)	4	24	-5.8	-0.6	-0.8%	-13
O=C(CC1SC2=NCCN2C1=O)Nc1ccccc1 (configuration not stated)	2	-10	-0.4	-0.2	0.3%	3
Cc1cc2oc(=O)cc(-c3ccccc3)c2c(C)c1-c1ccc(F)c(Cl)c1	23	5	-0.4	1.6	0.4%	30
O=C(O)CC(=O)NC12CC3CC(CC(C3)C1)C2	6&0	-2&1	-1.9&-0.5	-0.6&-0.7	-1.6%	4&-3
Cc1ccc(-n2nc(C)c3c(C(F)(F)F)cc(-c4cccnc4)nc32)cc1C	.	-19	.	-0.2	-1.3%	.
O=C(CNC1CCCC1)Nc1ccc(S(=O)(=O)N2CCCCC2)cc1	1	20	-2.9	-0.8	2.2%	2

Look-ups from above:
Result of O=C(CNC1CCCC1)Nc1ccc(S(=O)(=O)N2CCCCC2)cc1 in Six1-Eya2 blk: 1
Result of O=C(NC1CC1)C1CCN(S(=O)(=O)c2ccc(Cl)c([N+](=O)[O-])c2)CC1 in PINK1 modulator: -1.6%

Going on with the list.
SMILES	Six1-Eya2 blk	TRPML1 inh	D2 ag	TRPML1 ag	PINK1 modulator	CtBP-E1A blk
Cc1ccc(F)cc1C(=O)N1CCCCC1c1cc(C(=O)Nc2cccc(C#N)c2)no1 (configuration not stated)	2	.	-3.6	-0.6	0.4%	1
O=C(CN1CCCCC1)Nc1ccc(S(=O)(=O)NC2CCCCC2)cc1	1	-9	-0.3	0.9	9.8%[38.3 µM]	-4
COc1ccccc1N1CCN(C(=O)c2cc(S(=O)(=O)N3CCOCC3)ccc2C)CC1	1	-2	0.3	0.4	2.3%	5
O=S(=O)(c1ccc(F)cc1)N1CCC2(CC1)OCCO2	8	24	1.1	0.5	0.7%	8
COc1ccc(NC2CCCN(C(=O)CN3C(=O)c4ccccc4C3=O)C2)cc1OC (configuration not stated)	3	0	0.5	0.9	0.0%	4
CCOc1ccc(NC(=O)NC(=O)N(C)S(=O)(=O)c2ccc(C)cc2)cc1	7	-14	-1.4	0.0	1.4%	-3
CC1(C)CC(=O)C=C(NCc2cccs2)C1	2	29	0.3	0.6	-0.9%	-4
Cc1cc(C)cc(OCC(=O)OCC(=O)Nc2c(C)n(C)n(-c3ccccc3)c2=O)c1	5	?	2.9	0.7	-0.6%	-15
CCOc1ccc(OCC)c(NC(=O)CN2CCN(CC(=O)NC(C)C)CC2)c1	3	.	-1.6	.	1.2%	.

Compound profiles, as listed above. Order of screens: Six1-Eya2 blk, TRPML1 inh, D2 ag, TRPML1 ag, PINK1 modulator, CtBP-E1A blk
CCOc1ccc(NC(=O)NC(=O)N(C)S(=O)(=O)c2ccc(C)cc2)cc1 as listed: 7, -14, -1.4, 0.0, 1.4%, -3
O=S(=O)(c1ccc(F)cc1)N1CCC2(CC1)OCCO2 as listed: 8, 24, 1.1, 0.5, 0.7%, 8
O=C(CN1CCCCC1)Nc1ccc(S(=O)(=O)NC2CCCCC2)cc1 as listed: 1, -9, -0.3, 0.9, 9.8%[38.3 µM], -4
CCOc1ccc(OCC)c(NC(=O)CN2CCN(CC(=O)NC(C)C)CC2)c1 as listed: 3, ., -1.6, ., 1.2%, .
COc1ccc(NC2CCCN(C(=O)CN3C(=O)c4ccccc4C3=O)C2)cc1OC (configuration not stated) as listed: 3, 0, 0.5, 0.9, 0.0%, 4
